NS1 inh: qHTS Assay for Inhibitors of Influenza NS1 Protein Function. S. cerevisiae slowed by influenza A NS1, growth recovery by OD600. Potency, µM (doses to about 46.1 µM), for inactives: top-dose activity, positive = more growth. 270,000 tested, 0.4% active; active means well fitted rising curve with a large enough effect; inconclusive means small, poorly fitted or top-dose-only effect; inactive means no such curve, though single readings can be large or run the other way; note: nearly all actives have a fitted effect of over 50% in size
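OD600 was taken as the measure of yeast growth restored by compound in an NS1-expressing S. cerevisiae strain. Cells had been washed out of glucose medium and diluted 1:100 into galactose -URA medium, pH 6.0.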
MARV entry inh: qHTS for inhibitors of binding or entry into cells for Marburg Virus; Marburg virus pseudotyped entry inhibition, cell reporter; control for the full effect not named in the record; about a third of the inactives were read at about 46 µM; 300,000 tested, 1.8% active; Potency, µM (series often up to 37.8 µM), inactives show at the highest dose activity change, negative = inhibition, usual class: inhibitors; active = well fitted inhibition curve with a large enough effect; inconclusive = small, poorly fitted or top-dose-only effect, or effect the other way; inactive = flat fitted curve, though single readings scatter; tested in HEK293 cells; about a fifth of its hits are not listed in these tables; note: % is set by controls: 0 for no effect and ±100 for the full control effect; luciferase read-out
Cruzain inh noDet: qHTS Assay for Promiscuous and Specific Inhibitors of Cruzain (without detergent) | purified cruzain, Z-FR-AMC fluorescence, no detergent | Potency, µM, for the others: max response, negative = inhibition, actives largely listed as inhibitors | 200,000 tested, 2.3% active | AID 1476, 2009;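 note: plate controls were enzyme without inhibitor for no effect and buffer without enzyme for full effect; nearly all actives have a fitted effect of over 40% in size; top concentration of the series not given in the record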
Target sequence (P25779 123-467 limits assumed): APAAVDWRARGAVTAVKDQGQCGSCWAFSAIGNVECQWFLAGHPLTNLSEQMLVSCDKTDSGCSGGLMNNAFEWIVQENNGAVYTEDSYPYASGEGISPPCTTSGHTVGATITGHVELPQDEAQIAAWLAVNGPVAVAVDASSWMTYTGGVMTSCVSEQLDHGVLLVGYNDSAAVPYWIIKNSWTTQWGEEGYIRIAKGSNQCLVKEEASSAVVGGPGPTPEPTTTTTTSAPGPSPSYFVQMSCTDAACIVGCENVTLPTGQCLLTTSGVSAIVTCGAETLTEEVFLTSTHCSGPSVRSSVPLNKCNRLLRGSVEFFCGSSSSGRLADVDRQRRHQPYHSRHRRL
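Purified cruzain at 1.5 nM, pre-incubated 15 min with compound at room temperature in 100 mM sodium acetate pH 5.5, 5 mM DTT, 0.00005% Triton X-100. Reaction started with 2 uM Z-FR-AMC; AMC fluorescence increase over 60 s gives rate.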
LASV entry inh: qHTS for Inhibitors of binding or entry into cells for Lassa Virus. 300,000 tested, 1.2% active. Potency, µM (highest dose often 37.9 µM), inactives show top-dose activity change, negative = inhibition, usual class: inhibitors. AID 540256, 2011. Lassa virus pseudotype entry inhibition, cell reporter; control for the full effect not named in the record; active means well fitted inhibition curve with a large enough effect; inconclusive means small, poorly fitted or top-dose-only effect, or effect the other way; inactive means flat fitted curve, though single readings scatter; tested in HEK293 cells; note: % is set by controls: 0 for no effect and ±100 for the full control effect; nearly all actives have a fitted effect of over 50% in size; luciferase read-out
Cruzain Triton: qHTS Assay for Promiscuous and Specific Inhibitors of Cruzain (with detergent). Cruzipain (Trypanosoma cruzi), P25779. purified cruzain, Z-FR-AMC fluorescence, 0.01% Triton. Potency, µM, inactives show max response, negative = inhibition, most hits filed as inhibitors. 200,000 tested, 0.43% active;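 note: plate controls were neutral wells for no effect and buffer without enzyme for full effect; nearly all actives have a fitted effect of over 40% in size; top concentration of the series not given in the record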
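Compounds were screened in titration against cruzain (1.5 nM) with 0.01% Triton X-100 to counter colloidal aggregation. Activity was the AMC fluorescence increase over 60 s after adding 2 uM Z-FR-AMC at pH 5.5.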
2A StopGo: High Throughput Screening for Foot and Mouth Disease Virus Antivirals | human cells with a luciferase reporter of 2A StopGo recoding; control for the full effect not named in the record | Potency, µM (top dose mostly 57.9 µM), without a hit: at the highest dose signal change, negative = less light | 410,000 tested, 1.2% active | AID 1159524, 2015; active = well fitted falling curve with a large enough effect; inconclusive = small, poorly fitted or top-dose-only effect; inactive = no such curve, though single readings can be large or run the other way; tested in HEK293T cells; note: % is set by controls: 0 for no effect and ±100 for the full control effect; nearly all actives have a fitted effect of over 45% in size; luciferase light after 4 h
RE007 growth inh: qHTS Assay for Inhibitors of the HIV-1 protein Vpr; 360,000 tested, 0.21% active; Potency, µM (series often up to 92.2 µM), without a hit: at the highest dose activity change, negative = less growth; AID 651644, 2012; S. pombe RE007 Vpr strain, BacTiter-Glo ATP luminescence, 24 h; control for the full effect not named in the record; active = well fitted falling curve with a large enough effect; inconclusive = small, poorly fitted or top-dose-only effect; inactive = no such curve, though single readings can be large or run the other way;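 note: % is set by controls: 0 for no effect and ±100 for the full control effect; nearly all actives have a fitted effect of over 50% in size; the assay follows cell death caused by Vpr and the record does not say whether a fall means rescue or toxicity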
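Fission yeast RE007 carrying one integrated HIV-1 vpr copy, seeded at OD 0.01 in PMG+AL medium with 23 nL pinned compound. Grown 24 h at 30 degrees; viability read by BacTiter-Glo luminescence after 5 min.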
SARS PLpro yeast: qHTS of Yeast-based Assay for SARS-CoV PLP; S. cerevisiae expressing SARS-CoV PLpro, growth rescue; control for the full effect not named in the record; Potency, µM (top dose mostly 32.9 µM), inactives show at the top dose activity, positive = growth rescue; 330,000 tested, 0.19% active; AID 485353, 2010; active means well fitted rising curve with a large enough effect; inconclusive means small, poorly fitted or top-dose-only effect; inactive means no such curve, though single readings can be large or run the other way; note: 0% is about no effect; nearly all actives have a fitted effect of over 55% in size; growth read by luminescence after 48 h
The depositor's hits bear a star; u = inconclusive; x = not tested or not shown; & = joins results of further samples; [ ] = remark or other dose. Unless noted, calls come from the whole dose curve; as a rule, active = well fitted curve in the direction sought with a large enough effect; inconclusive = small, poorly fitted or top-dose-only effect, or another doubt; inactive = no such curve, though single readings can be large; an effect the other way counts as inactive or inconclusive. Potency is the fitted concentration of half-maximal effect.

structure	RE007 growth inh	2A StopGo	LASV entry inh	MARV entry inh	NS1 inh	Cruzain inh noDet	Cruzain Triton	SARS PLpro yeast
Cc1ccc2c(c1)c1c(n2CC(O)Cn2c(C)nc3ccccc32)/C(=N\O)CCC1 (stereo unspecified)	15%	u	u	u	-63%	u	-22%	-26%
Cc1cccn2c(=O)c(C=O)c(N3CCN(c4ccc(F)cc4)CC3)nc12	23%	-23%	x	x	3%	x	x	1%
CCOC(=O)c1ccc(NC(=O)N2CCN(C(=O)C3CCCO3)CC2)cc1 (stereo unspecified)	0%	-15%	5%	23%[46.1 µM]	4%	x	x	0%
COc1cccc(OCCOc2ccccc2[N+](=O)[O-])c1	-27%	16%	-4%	-1%	x	x	x	x
COc1ccc(Cl)cc1S(=O)(=O)NCc1ccncc1	4%	35%[activator]	2%	-21%	-2%	x	x	-1%
O=C(Cc1ccc(Br)cc1)N/N=C/c1cccnc1	7%	-10%	x	x	-14%	x	x	-5%
CCOc1ccccc1-c1nc(CN2CCCN(C(=O)c3ccco3)CC2)c(C)o1	-10%	3%	-11%	-3%	16%	x	x	-7%
CC(C)C(=O)Nc1ccc(S(=O)(=O)N2CC3CC(C2)c2cccc(=O)n2C3)cc1 (stereo unspecified)	-10%	-12%	x	x	1%	x	x	0%
CNc1nc(NC)nc(-n2c(C(F)(F)F)nc3ccccc32)n1	11%	0%	9%	-7%	-46%	9%	0.3%	5%
Cc1oc2ccc(O)cc2c1C(=O)c1ccc(Br)cc1	-28%	u	u	-6%	x	x	x	x
Cc1ccccc1NC(=O)NNC(=O)CCc1ccccc1	16%	2%	26%[46.1 µM]	4%[46.1 µM]	-5%	x	x	9%
Cc1ccc(C(=O)NCCN2C3=NC[C@H](Cc4ccc(O)cc4)N3C[C@H]2Cc2ccc(O)cc2)cc1Br	-5%	-5%	x	x	-1%	x	x	0%
Cc1ccc(CSc2nc3ccccc3c3nc(CCn4c(C)nc5ccccc54)nn23)cc1	x	-23%	-10%[46.1 µM]	x	x	-1%	1.1%	x
COc1ccc(CC(=O)N2CCc3cc(OC)c(OC)cc3C2COc2ccc(F)cc2)cc1OC (stereo unspecified)	x	25µM*	u	x	x	u	0.3%	x
CCC1=C(OC(=O)N(CC)CC)N2C(=O)OC(=NCCc3c[nH]c4ccccc34)[C@]2(C)[C@H]2C1=CC[C@H]1C(=O)N(CC)C(=O)[C@H]12	5%	-21%	x	x	-1%	u	-3.5%	-2%
COc1ccc(-c2cc(C(F)(F)F)n3nc(C(=O)NCC45CC6CC(CC(C6)C4)C5)cc3n2)cc1OC	x	-22%	1%[46.1 µM]	-10%[46.1 µM]	x	-4%	1.7%	x
CCOC(=O)C1=C(C(F)(F)F)Nc2ncnn2C1c1cccc(OC)c1OC (stereo unspecified)	6%	-14%&0%	29%[46.1 µM]	-6%&-6%	12%	-1%&-15%	0.1%&1.6%	10%
CCc1c(C)nc2[nH]nc(NC(=O)C(F)(F)F)n2c1=O	-10%	x	11%	9%	-2%	-1%	3.2%	-1%
CCN1CCN(c2ncnc3sc4c(c23)CCC(C)C4)CC1 (stereo unspecified)	0%	-8%	x	x	-2%	x	x	3%
CC(C)(C)c1ccc(S(=O)(=O)NCc2ccc3c(c2)CCN3C(=O)c2ccccc2)cc1	x	u	u	x	x	u	-4.3%	x
CNC(=O)c1ccc2snnc2c1	-18%	-18%	x	x	-2%	-12%	-3.1%	4%
CCn1c(=S)sc2nc(C)sc21	-9%	x	-2%	20%	-58%	x	x	x
O=[N+]([O-])c1ccc(Oc2ccc(S(=O)(=O)Nc3ccccc3)cc2)cc1	5%	u	-24%	u	-13%	1%	-4.4%	-59%
COc1cccc(C(=O)Nc2nnc(S(=O)(=O)Nc3cccc(C)c3)s2)c1	-6%	41%[activator]	x	x	2%	x	x	-1%
Cc1cccc(NC(=O)CCS(=O)(=O)c2ccc(Br)cc2)c1	7%	-7%	x	x	-5%	x	x	0%
O=[N+]([O-])c1nn(-c2ccc3c(c2)OCCO3)n(O)c1=Nc1ccc(Cl)cc1	-9%	x	u	u	-9%	u	-4.5%	12%
CN(C)CCCN(Cc1cc2cc3c(cc2[nH]c1=O)OCO3)C(=S)NCc1ccco1	u	-5%	4%[46.1 µM]	u	-1%	x	x	0%
CC(C)(C)CC(C)(C)c1ccc(O)c(CN2CCN(CCC#N)CC2)c1	-1%	u	-30%	u	0%	1%	0.6%	-8%
COC(=O)c1ccccc1NC(=O)Nc1cccnc1	-2%	-10%	-1%	5%	0%	2%	1.5%	-1%
O=C(Nc1ccccc1)Oc1cccc2cccnc12	u	4%	1%	-3%	x	x	x	x
COc1cc(/C=C(/C(=O)c2cccs2)c2nc3ccccc3[nH]2)ccc1O	7%	25µM*	u	4.1µM*	u	6%	1.3%	-2%
CCOc1ccc(CNS(=O)(=O)c2cc(CN3C(=O)c4cccnc4C3=O)ccc2OC)cc1	5%	-8%	x	x	-8%	x	x	-5%
Cc1ccc(CCNC(=O)C2CCN(c3nn4c(=O)cc(C)nc4s3)CC2)cc1	7%	-5%	4%	4%	8%	4%	-7.0%	0%
CC(C)C(OC(=O)c1ccc(Cl)nc1)C(=O)NC1CCCCC1 (stereo unspecified)	-1%	-1%	-10%[46.1 µM]	8%[46.1 µM]	0%	x	x	-14%
Cc1ccc(C)c(NC(=O)C(Sc2ncnc3ccccc23)c2ccccc2)c1 (stereo unspecified)	6%	-13%	0%	-12%	8%	0%	2.3%	3%
COC(=O)c1nnn(-c2nonc2N)c1-c1cccs1	-6%	9%	10%	10%	-15%	0%	0.7%	-3%
O=C(NCc1ccc(OC(F)(F)F)cc1)C1CC(c2cccc(F)c2)=NO1 (stereo unspecified)	-8%	-14%	x	x	-7%	x	x	1%
Cn1c(N)c(C(=O)COC(=O)C2=COCCO2)c(=O)n(C)c1=O	4%	-14%	-4%	10%	-5%	-4%	3.2%	-1%
O=C(OCc1cccc([N+](=O)[O-])c1)c1cc2ccccc2oc1=O	0%	22%	u	-10%	-19%	x	x	-6%
Nc1cc(=O)[nH]c(SCC(=O)N2CCN(S(=O)(=O)c3ccc4ccccc4c3)CC2)n1	5%	-7%	2%	u	x	x	x	-2%
O=C1CC(c2nc(-c3ccccc3)no2)CN1c1ccccc1 (stereo unspecified)	x	26%	-20%[46.1 µM]	x	x	-5%	-3.9%	x
Cn1ccc2cc(OCc3ccccc3)ccc21	-5%	38%[activator]	-4%	u	x	x	x	x
CC(C)CC1CCCC12NC(=O)NC2=O (stereo unspecified)	-14%	-1%	13%[46.1 µM]	-15%[46.1 µM]	x	x	x	x
COc1ccc(C2c3c(oc4c(C)cc(C)cc4c3=O)C(=O)N2Cc2cccnc2)cc1OC (stereo unspecified)	x	x	x	0%	-1%	-3%	3.7%	-9%
COc1ccc(N(C)C(=O)Cc2c(C(=O)O)n(C)c3ccccc23)c(OC)c1	4%	-9%	5%	32%	5%	x	x	-3%
COc1ccc(C)cc1NC(=O)c1cnc2n(c1=O)CCS2	-13%	0%	u	8%	2%	16%	-7.4%	5%
Cc1cc(-c2n[nH]c(=S)n2/N=C/c2sccc2C)n[nH]1	2%	-9%	4%	u	5%	-3%	-6.3%	u
CN1CCN(c2ccc(-c3nc(-c4ccccc4)no3)cc2[N+](=O)[O-])CC1	x	0%	u	-3%[46.1 µM]	x	11%	-6.4%	x
CC1CC(C)CN(CC(=O)N2CCc3[nH]c4ccccc4c3C2)C1 (stereo unspecified)	-14%	-14%	5%	11%	8%	20%	7.0%	7%
COc1ccc2oc(-c3ccc(C)c(NC(=O)c4cccnc4)c3)nc2c1	x	-12%	4%[46.1 µM]	x	x	6%	0.7%	x
CCn1cc(C(=O)NCC(=O)NC(C)(C)CO)c(=O)c2cc3c(cc21)OCO3	-2%	0%	5%	7%[46.1 µM]	1%	x	x	-3%
CCN(CC)C(=O)C12C(=O)Oc3ccccc3C1C2(C)C(=O)c1ccc(F)cc1 (stereo unspecified)	5%	-6%	4%	-3%	1%	x	x	0%
O=S(=O)(c1ccc(=S)[nH]c1)N1CCN(Cc2ccccc2)CC1	2%	-10%	-4%	1%	x	x	x	0%
CCOC(=O)c1cccc(NC(=O)N2CC=C(c3c[nH]c4ccccc34)CC2)c1	x	-8%	u	x	x	-8%	-8.6%	x
Cc1ccc2cc3cc(C(=O)NCCCN4CC(C)CC(C)C4)oc3nc2c1 (stereo unspecified)	-12%	13%	x	x	1%	x	x	17%
COc1ccc(C(=O)C23CC4CC(C2)CC(C(=O)c2ccc(OC)cc2)(C4)C3)cc1	-6%	-29%	x	x	1%	x	x	1%
CC(NC(=O)C12CC3CC(CC(C3)C1)C2)C(=O)N/N=C/C1=C(N2CCOCC2)C(=C\c2ccccc2)/CC1 (stereo unspecified)	-10%	7%	-10%	u	26%	6%	-7.4%	-7%
Cc1ccc(NC(=O)Cn2nc(-c3ccccc3)nc(Cc3ccccc3)c2=O)cc1	x	10%	u	x	x	-12%	1.3%	x
COCCOC(=O)C1=C(C)NC2=C(C(=O)CC(c3cccs3)C2)C1c1ccsc1 (stereo unspecified)	6%	-2%	u	u	-19%	2%	-7.3%	-4%
C=CCSc1nc2ccccc2[nH]1	-4%	33%[activator]	u	12%	-57%	4%	3.7%	2%
COc1cc(CNC(=O)c2sc3ncccc3c2-n2cccc2)cc(OC)c1OC	x	-30%	u	x	x	u	-5.2%	x
O=C(Nc1cccc(C(F)(F)F)c1)c1cc(-c2ccc(Cl)cc2)on1	x	-4%	3%[46.1 µM]	-1%[46.1 µM]	x	u	-2.0%	x
S=P(Nn1cnnc1)(c1ccc(Br)cc1)c1ccc(Br)cc1	-1%	31%[activator]	-19%	13%[46.1 µM]	x	x	x	-1%
